Cruzain noTriton: inhibitors of Trypanosoma cruzi cruzain without detergent | P25779 | purified cruzain, Z-FR-AMC fluorescence, no detergent | Potency, µM, for inactives: max response, negative = inhibition, most hits filed as inhibitors | 200,000 compounds, 2.3% hits;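 also: plate controls were enzyme without inhibitor for no effect and buffer without enzyme for full effect; nearly all actives have a fitted effect of over 40% in size; top concentration of the series not given in the record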
Target sequence (P25779 123-467 limits assumed): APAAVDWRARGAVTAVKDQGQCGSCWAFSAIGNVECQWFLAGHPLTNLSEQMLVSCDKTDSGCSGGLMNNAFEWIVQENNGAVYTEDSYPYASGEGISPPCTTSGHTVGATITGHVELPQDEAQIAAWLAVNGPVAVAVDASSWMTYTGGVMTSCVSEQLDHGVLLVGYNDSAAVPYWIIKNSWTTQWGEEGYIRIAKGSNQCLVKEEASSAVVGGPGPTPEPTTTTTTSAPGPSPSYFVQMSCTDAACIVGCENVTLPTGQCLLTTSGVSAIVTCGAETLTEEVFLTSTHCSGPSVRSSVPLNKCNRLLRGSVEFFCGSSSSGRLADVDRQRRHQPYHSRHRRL
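Purified cruzain at 1.5 nM, pre-incubated 15 min with compound at room temperature in 100 mM sodium acetate pH 5.5, 5 mM DTT, 0.00005% Triton X-100. Reaction started with 2 uM Z-FR-AMC; AMC fluorescence increase over 60 s gives rate.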
2A StopGo: FMDV 2A StopGo reporter, luciferase signal | 410,000 compounds, 1.2% hits | AID 1159524 | Potency, µM (highest dose often 57.9 µM), without a hit: top-dose signal change, negative = less light | human cells with a luciferase reporter of 2A StopGo recoding; control for the full effect not named in the record; active = well fitted falling curve with a large enough effect; inconclusive = small, poorly fitted or top-dose-only effect; inactive = no such curve, though single readings can be large or run the other way; tested in HEK293T cells; also: % is scaled to controls: 0 for no effect and ±100 for the full control effect; nearly all actives have a fitted effect of over 45% in size; luciferase light after 4 h
SARS PLpro yeast: blocks SARS-CoV papain-like protease in a yeast assay; AID 485353; 330,000 compounds, 0.19% hits; Potency, µM (top dose mostly 32.9 µM), inactives show at the top dose activity, positive = growth rescue; S. cerevisiae expressing SARS-CoV PLpro, growth rescue; control for the full effect not named in the record; active means well fitted rising curve with a large enough effect; inconclusive means small, poorly fitted or top-dose-only effect; inactive means no such curve, though single readings can be large or run the other way; also: 0% is about no effect; nearly all actives have a fitted effect of over 55% in size; growth read by luminescence after 48 h
Cruzain inh Det: inhibitors of Trypanosoma cruzi cruzain with detergent | purified cruzain, Z-FR-AMC fluorescence, 0.01% Triton | P25779 | 200,000 compounds, 0.43% hits | Potency, µM, inactives show max response, negative = inhibition, usual class: inhibitors | AID 1478;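 also: plate controls were neutral wells for no effect and buffer without enzyme for full effect; nearly all actives have a fitted effect of over 40% in size; top concentration of the series not given in the record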
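Read-out: AMC fluorescence (360 nm excitation, 450 nm emission), four reads over 2 min, first-to-third difference used. Conditions: cruzain 1.5 nM, Z-FR-AMC 2 uM, pH 5.5 acetate, 5 mM DTT, 0.01% Triton X-100.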
RE007 growth inh: less growth of the S. pombe RE007 Vpr strain; S. pombe RE007 Vpr strain, BacTiter-Glo ATP luminescence, 24 h; control for the full effect not named in the record; AID 651644; Potency, µM (highest dose often 92.2 µM), for the others: at the top dose activity change, negative = less growth; 360,000 compounds, 0.21% hits; active = well fitted falling curve with a large enough effect; inconclusive = small, poorly fitted or top-dose-only effect; inactive = no such curve, though single readings can be large or run the other way;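 also: % is scaled to controls: 0 for no effect and ±100 for the full control effect; nearly all actives have a fitted effect of over 50% in size; the assay follows cell death caused by Vpr and the record does not say whether a fall means rescue or toxicity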
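Fission yeast RE007 carrying one integrated HIV-1 vpr copy, seeded at OD 0.01 in PMG+AL medium with 23 nL pinned compound. Grown 24 h at 30 degrees; viability read by BacTiter-Glo luminescence after 5 min.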
NS1 function inh: inhibitors of influenza NS1 protein function | S. cerevisiae slowed by influenza A NS1, growth recovery by OD600 | Potency, µM (series often up to 46.1 µM), without a hit: at the highest dose activity, positive = more growth | 270,000 compounds, 0.4% hits | AID 2326; active means well fitted rising curve with a large enough effect; inconclusive means small, poorly fitted or top-dose-only effect; inactive means no such curve, though single readings can be large or run the other way; also: nearly all actives have a fitted effect of over 50% in size
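OD600 was taken as the measure of yeast growth restored by compound in an NS1-expressing S. cerevisiae strain. Cells had been washed out of glucose medium and diluted 1:100 into galactose -URA medium, pH 6.0.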
LASV entry inh: inhibitors of Lassa virus binding or cell entry. Lassa virus pseudotype entry inhibition, cell reporter; control for the full effect not named in the record. Potency, µM (top dose mostly 37.9 µM), for the others: top-dose activity change, negative = inhibition, usual class: inhibitors. 300,000 compounds, 1.2% hits. AID 540256; active means well fitted inhibition curve with a large enough effect; inconclusive means small, poorly fitted or top-dose-only effect, or effect the other way; inactive means flat fitted curve, though single readings scatter; tested in HEK293 cells; also: % is scaled to controls: 0 for no effect and ±100 for the full control effect; nearly all actives have a fitted effect of over 50% in size; luciferase read-out
MARV entry inh: Marburg virus entry inhibition. Marburg virus pseudotyped entry inhibition, cell reporter; control for the full effect not named in the record; about a third of the inactives were read at about 46 µM. Potency, µM (doses to about 37.8 µM), for the others: at the highest dose activity change, negative = inhibition, actives largely listed as inhibitors. 300,000 compounds, 1.8% hits. AID 540276; active = well fitted inhibition curve with a large enough effect; inconclusive = small, poorly fitted or top-dose-only effect, or effect the other way; inactive = flat fitted curve, though single readings scatter; tested in HEK293 cells; about a fifth of its hits are not listed in these tables; also: % is scaled to controls: 0 for no effect and ±100 for the full control effect; luciferase read-out
Starred values were filed as active, the others as inactive; ? = inconclusive; / = not tested or not shown; [ ] = another dose, or the depositor's remark. Unless noted, calls follow the shape of the dose curve; as a rule, active = well fitted curve in the direction sought with a large enough effect; inconclusive = small, poorly fitted or top-dose-only effect, or another doubt; inactive = no such curve, though single readings can be large; an effect the other way counts as inactive or inconclusive. Potency is read from the fitted curve at half-maximal effect.

cpd	compound	SARS PLpro yeast	2A StopGo	LASV entry inh	RE007 growth inh	Cruzain inh Det	MARV entry inh	NS1 function inh	Cruzain noTriton
1	CC(=O)Nc1nc2ccccc2n1Cc1ccccc1C	7%	-10%	-3%	-7%	2.5%	?	-56%	-16%
2	CCOc1ccc(N2CC(NC(=O)c3ccco3)CC2=O)cc1 (stereo not drawn)	/	-10%	3%[46.1 µM]	/	-1.9%	/	/	8%
3	CC(=O)O[C@H]1CSC[C@H]1NC(=O)c1ccccc1	0%	-13%	6%	20%	4.3%	5%	1%	-8%
4	CCC12CN3CCN(CC(C3)/C1=N\NC(=O)c1ccc(F)cc1)C2	-1%	-2%	-2%	-8%	/	?	/	/
5	CCC(C(=O)NCc1ccccc1Cl)n1nc(C)c2sc3ccccc3c2c1=O (stereo not drawn)	/	-1%	-8%[46.1 µM]	/	-4.8%	5%[46.1 µM]	/	10%
6	O=c1c2cc(N3CCOCC3)ccc2[nH]c(=S)n1CC1CCCO1 (stereo not drawn)	0%	12%	?	-5%	-2.1%	-17%	5%	0%
7	S=C(Nc1ccc(Cl)cc1Cl)Nc1ccccc1Oc1ccccc1	-1%	3%	-14%	6%	-3.8%	-26%	8%	-3%
8	Cn1cc(CN2CCC(n3nccc3NC(=O)CCOc3ccccc3)CC2)cn1	-1%	-4%	/	7%	/	/	1%	/
9	CC(C)(C)NC(=O)c1ccc2c(c1)N(CC(=O)N1CCN(c3ccc(F)cc3)CC1)C(=O)C(C)(C)O2	2%	-14%	-17%	0%	-2.0%	?	-7%	?
10	CCCCc1nc2ccccc2c(C(=O)O)c1C	4%	-5%	-1%	18%	-1.8%	0%	-14%	-5%
11	c1ccc(-c2nnc(-c3ccncc3)o2)cc1	12%	/	10%	-11%	1.4%	18%	-8%	-9%
12	CNC(=O)c1c(NC(=O)c2ccco2)sc2c1CCCC2	-17%	13%	-20%[46.1 µM]	-11%	/	17%[46.1 µM]	-55%	/
13	CC1CN(C(=S)NC(=O)c2cccc([N+](=O)[O-])c2)CC(C)O1 (stereo not drawn)	11%	-16%	1%	-7%	0.3%	?	-5%	4%
14	CCc1ccc(OCC(=O)Nc2ccc(S(=O)(=O)Nc3cc(C)on3)cc2)c(Br)c1	-3%	-15%	1%	-3%	/	5%	3%	/
15	Cc1ccc(S(=O)(=O)NCC(=O)OCC(=O)NCCc2ccccc2)cc1	3%	-8%	7%	1%	/	20%	/	/
16	COCCCNC(=S)N1CCC(NC(=O)c2ccco2)CC1	-1%	-10%	5%	35%	/	3%[46.1 µM]	2%	/
17	Cc1cccc(CN2CCC(n3nccc3NC(=O)CCCc3ccccc3)CC2)n1	4%	-7%	6%	17%	/	-2%	-5%	/
18	CCN(c1ccccc1)S(=O)(=O)c1ccc(C(=O)N2CC(C)CC(C)C2)cc1 (stereo not drawn)	1%	-6%	-25%[46.1 µM]	2%	/	-17%	/	/
19	CCCc1cc(C(=O)NCc2cccnc2)no1	-3%	24%	/	9%	2.9%	/	-2%	-8%
20	CCCCNC(=O)c1onc(CSc2ccc(F)c(F)c2)c1C(=O)O	-5%	0%	/	5%	-3.7%	/	-3%	1%
21	N#C/C(=C/c1ccc(N2CCOCC2)o1)c1nc2ccccc2[nH]1	-11%	-61%	?	-7%	-11%	?	25%	-27%
22	O=C(/C=C/c1ccccc1)NCc1cccnc1	0%	1%	12%	5%	/	10%[46.1 µM]	0%	/
23	CC1(c2ccccc2)NC(=O)N(CC(=O)Nc2nnc(C3CC3)s2)C1=O (stereo not drawn)	-3%	-15%	?	-10%	/	15%	1%	/
24	CCOC(=O)c1cc(-c2cc3ccccc3o2)n[nH]1	-25%	11%	?	-27%	-2.7%	-7%	-12%	17%
25	Cc1ccc2nc(NC(=O)c3cccs3)sc2c1	-1%	-37%	2.5µM*	-17%	0.4%	3.2µM*	-62%	-8%
26	CCC(C)NC(=O)c1cnn2c(C)c3c(nc12)CCCC3 (stereo not drawn)	4%	-19%	0%	6%	0.6%	4%	-89%	-5%
27	O=C(Nc1ccc(OCC(=O)N2CCOCC2)cc1)Nc1cccc(Cl)c1	-1%	19%	1%	77%	/	-9%	-1%	/
28	Cc1cc(C)c2nc(C)cc(Nc3ccc(C(=O)N4CCOCC4)cc3)c2c1	2%	-18%	?	-2%	/	?	2%	/
29	CC1CN(C(=S)Nc2cccc([N+](=O)[O-])c2)CC(C)O1 (stereo not drawn)	1%	10%	/	-1%	/	/	23%	/
30	COc1ccc(NC(=O)c2nc3ccccc3s2)cc1	-15%	?	?	-30%	-8.6%	?	-15%	-13%

Continuation.
cpd	compound	SARS PLpro yeast	2A StopGo	LASV entry inh	RE007 growth inh	Cruzain inh Det	MARV entry inh	NS1 function inh	Cruzain noTriton
31	COc1ccc(C(=O)NN2C(=O)C3C(c4ccccc4)C=CC(c4ccccc4)C3C2=O)cc1 (stereo not drawn)	-19%	-25%	14%	20%	-3.3%	4%	7%	-6%
32	CS(=O)(=O)Nc1cccc(C2=NN(C(=O)c3ccc(F)cc3)C(c3cccs3)C2)c1 (stereo not drawn)	0%	-26%	/	0%	/	/	6%	/
33	Cc1nc(N/N=C/c2ccc(O)cc2O)cc(N2CCOCC2)n1	8%	-9%	?	-7%	/	2.8µM*	18%	/
34	O=C(Cn1ccn(-c2ccc(F)cc2)c(=O)c1=O)Nc1ccc(F)cc1	/	-8%	3%[46.1 µM]	/	-1.1%	/	/	1%
35	C=CCN1C(=O)C2(OCCO2)c2cc(C)ccc21	-2%	-16%	22%[46.1 µM]	-14%	/	-20%[46.1 µM]	2%	/
36	CC1(C)CCCC2=C1CC1C(=O)N(c3ccccc3)C(=O)C1C2 (stereo not drawn)	1%	-26%	2%	-12%	-6.1%	-8%	-7%	-6%
37	Cc1ccccc1COC[C@H](CC(C)C)N1CCN(C(=O)c2cccc(C(F)(F)F)c2)CCC1=O	-1%	-25%	?	11%	-8.7%	?	-9%	?
38	COc1ccc(CCNC(=O)[C@@H](NC(=O)c2ccccc2F)C(C)C)cc1OC	0%	-18%	-1%	-9%	/	?	/	/
39	COc1cccc(-n2c(-c3cccc(S(=O)(=O)N(C)C)c3)n[nH]c2=S)c1	0%	-2%	-6%	6%	/	?	/	/
40	Cc1ccc(NC(=O)CCNS(=O)(=O)c2ccc3[nH]c(=O)oc3c2)cc1	-8%	11%	/	-9%	/	/	-1%	/
41	Nc1nc(SCC(=O)Nc2ccccc2C(F)(F)F)[nH]c(=O)c1-c1ccccc1	1%	-4%	-9%	-7%	/	1%[46.1 µM]	-5%	/
42	Cc1cnc(N=Nc2ccccc2)[nH]1	/	51%[activator]	?	?	/	?	/	/
43	O=C(NCCN1CCOCC1)C(=O)NCC1CCCO1 (stereo not drawn)	-7%	-8%	13%	0%	-1.2%	-1%	12%	-13%
44	Cc1nnc(NC(=O)CSc2nccn2-c2cccc(Cl)c2)s1	/	4%	?	/	-0.3%	/	/	13%
45	O=C(CNC(=O)c1ccco1)OCc1c(F)cccc1Cl	6%	38%[activator]	10%	10%	-3.7%	24%	-3%	-5%
46	COc1ccc(C)c2sc(NC(=O)c3ccc(S(=O)(=O)N(C)C)cc3)nc12	/	5%	7%[46.1 µM]	/	1.6%	/	/	23%
47	CCOC(=O)c1cc2cc(-c3c(C(=O)OCC)oc4cc(O)cc(O)c4c3=O)ccc2o1	0%	32µM*	0%	-5%	-13%	-8%	-66%	11%
48	O=C(CNc1cc(S(=O)(=O)N2CCOCC2)ccc1N1CCCC1)NCc1ccco1	-1%	0%	7%[46.1 µM]	5%	/	7%[46.1 µM]	/	/
49	c1ccc(CNc2ccc(CNc3ncn[nH]3)cc2)cc1	0%	8%	4%	-19%	0.0%	24%	5%	9%
50	COc1ccccc1CNC(=O)CCCc1nnc2n(CC(C)C)c(=O)c3sccc3n12	/	-19%	-19%[46.1 µM]	/	-0.6%	/	/	-7%
51	COc1ccc(C(O)c2nccn2C)cc1 (stereo not drawn)	1%	/	1%	-3%	7.5%	12%	-3%	5%
52	O=C(NC(=S)N1CCN(c2c(Cl)cccc2[N+](=O)[O-])CC1)c1cccs1	-16%	33%	-3%	55%	-2.8%	?	12%	?

Complete entries, quoted from the list:
COCCCNC(=S)N1CCC(NC(=O)c2ccco2)CC1 is listed as SARS PLpro yeast: -1%; 2A StopGo: -10%; LASV entry inh: 5%; RE007 growth inh: 35%; Cruzain inh Det: /; MARV entry inh: 3%[46.1 µM]; NS1 function inh: 2%; Cruzain noTriton: /
C=CCN1C(=O)C2(OCCO2)c2cc(C)ccc21 is listed as SARS PLpro yeast: -2%; 2A StopGo: -16%; LASV entry inh: 22%[46.1 µM]; RE007 growth inh: -14%; Cruzain inh Det: /; MARV entry inh: -20%[46.1 µM]; NS1 function inh: 2%; Cruzain noTriton: /

Some of the entries so far, as labelled records.
37: Cc1ccccc1COC[C@H](CC(C)C)N1CCN(C(=O)c2cccc(C(F)(F)F)c2)CCC1=O
  SARS PLpro yeast: -1%
  2A StopGo: -25%
  LASV entry inh: ?
  RE007 growth inh: 11%
  Cruzain inh Det: -8.7%
  MARV entry inh: ?
  NS1 function inh: -9%
  Cruzain noTriton: ?
43: O=C(NCCN1CCOCC1)C(=O)NCC1CCCO1 (stereo not drawn)
  SARS PLpro yeast: -7%
  2A StopGo: -8%
  LASV entry inh: 13%
  RE007 growth inh: 0%
  Cruzain inh Det: -1.2%
  MARV entry inh: -1%
  NS1 function inh: 12%
  Cruzain noTriton: -13%
